HPGD block: inhibitors of human 15-hydroxyprostaglandin dehydrogenase (HPGD) | P15428 | purified HPGD, NADH fluorescence kinetic, PGE2 substrate | Potency, µM, for inactives: top-dose activity change, negative = inhibition, usual class: inhibitors | actives 4.3% (n = 150,000) | AID 894; active = well fitted inhibition curve with a large enough effect (not every such curve was filed as active); inconclusive = small, poorly fitted or top-dose-only effect, or another doubt; inactive = no such curve, though single readings can be large or run the other way;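 further: top concentration of the series not given in the record; plate controls included wells without enzyme; inactives centre near -10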
Target sequence (P15428 whole entry, looked up): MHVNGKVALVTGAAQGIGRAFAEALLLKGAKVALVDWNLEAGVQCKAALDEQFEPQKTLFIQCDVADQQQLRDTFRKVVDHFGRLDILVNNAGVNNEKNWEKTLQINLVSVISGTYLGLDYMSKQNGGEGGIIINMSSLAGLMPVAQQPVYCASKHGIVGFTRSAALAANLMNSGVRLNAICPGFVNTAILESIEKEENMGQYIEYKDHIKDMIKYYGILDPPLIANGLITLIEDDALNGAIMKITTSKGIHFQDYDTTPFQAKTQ
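20 nM HPGD preincubated 15 min at room temperature with compound in 50 mM Tris-HCl pH 8, 0.01% Tween 20. Started with 1 mM NAD+ and 30 uM prostaglandin E2; NADH fluorescence (360/450 nm) read 5 times over 30-s intervals, last minus first.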
* hit, by the source's call. On the % scale 0 is the no-effect control and ±100 the full control effect; potency means the concentration at half of the fitted maximal effect. The list is partial; the hit share may differ from the screen's.

`COc1ccc(C(=O)N2CCC3(CCCN(c4ccncc4)C3)CC2)cc1` gave HPGD block -14.6%.
`CCOC(=O)CCc1c(C)nc2cc(C3CCCN(C(=O)OC(C)(C)C)C3)[nH]n2c1=O` (stereo not given) gave HPGD block inconclusive.
For CC(C)[C@H](Nc1ncnc2nc[nH]c12)C(=O)O the results were HPGD block -5.2%.
Cc1ccc(-n2c(=O)c3c(n4cnnc24)-c2ccccc2CC32CCCCC2)cc1 was read as HPGD block -12.9%.
CCCS(=O)(=O)N1CCCC(C(=O)NCCCOCC)C1 (stereo not given) was read as HPGD block -15.0%.
`CCOC(=O)c1c(-c2ccccc2)csc1NC(=O)c1cc(S(=O)(=O)N2CCOCC2)ccc1C` gave HPGD block inconclusive.
`COc1c([N+](=O)[O-])c(=O)oc2ccccc12` gave HPGD block -4.4%.
For CCN(C(=O)c1sc(N)c(C#N)c1C)C1CCCCC1 the results were HPGD block 0.4%.
`C=CCc1ccc(OCCOc2ccc(/C=N/n3cnnc3)cc2OCC)c(OC)c1` gave HPGD block -24.3%.
For COc1cccc(-n2c(SCC(=O)Nc3nccs3)nnc2-c2ccoc2C)c1 the results were HPGD block -13.6%.
CS(=O)(=O)N1CCN(C/C=C/c2ccccc2)CC1 was read as HPGD block 1.8%.
COc1ccc(CNC(=O)C(c2ccncc2)N(C(=O)Cc2cccs2)c2ccccc2C)cc1 (stereo not given) was read as HPGD block -3.2%.
CC1(C)CC(=O)C2=C(C1)c1c(ccc3ccccc13)NC2c1ccco1 (stereo not given) was read as HPGD block inconclusive.
`Cc1ccc(NC(=O)c2ccc(NCCN)c([N+](=O)[O-])c2)cc1` gave HPGD block -10.3%.
For CN(c1ccc(C(=O)Nc2ccccc2C(F)(F)F)cc1)S(C)(=O)=O the results were HPGD block -14.3%.
`Clc1cccc(-c2ccnc3nc(-n4cccc4)nn23)c1` gave HPGD block -14.0%.
Screening COc1ccc(Cn2cccc(NC(=O)Nc3cccc(C#N)c3)c2=O)cc1 returned HPGD block inconclusive.
`COc1ccc(NC(=O)c2c(NC(=O)CNCc3ccco3)sc3c2CCC3)c(OC)c1` gave HPGD block -24.8%.
`COc1ccc(-c2csc(Nc3cccnc3)n2)cc1` gave HPGD block -22.5%.
Screening COc1ccc(OC)c(NC(=O)CCCN2C(=S)NC(C)(C)CC2C)c1 (stereo not given) returned HPGD block -2.7%.

Five compounds out of the list, sorted by number of heavy atoms, ascending:
For CCN(C(=O)c1sc(N)c(C#N)c1C)C1CCCCC1 the results were HPGD block 0.4%.
CCCS(=O)(=O)N1CCCC(C(=O)NCCCOCC)C1 (stereo not given) was read as HPGD block -15.0%.
`Cc1ccc(NC(=O)c2ccc(NCCN)c([N+](=O)[O-])c2)cc1` gave HPGD block -10.3%.
For COc1cccc(-n2c(SCC(=O)Nc3nccs3)nnc2-c2ccoc2C)c1 the results were HPGD block -13.6%.
`COc1ccc(NC(=O)c2c(NC(=O)CNCc3ccco3)sc3c2CCC3)c(OC)c1` gave HPGD block -24.8%.

Carrying on.
Screening c1ccc2c(c1)N1CCN=C1N2CCN1CCCCC1 returned HPGD block -6.9%.
Screening Oc1ccc(CNc2ccccc2)c2cccnc12 returned HPGD block -3.4%.
CCCCC(=O)Nc1ccc2c(c1)nc(CCN1CCOCC1)n2C was read as HPGD block -8.0%.
`CC1(C)CC(=O)c2c(nn(-c3ccccc3)c2N)C1` gave HPGD block -9.7%.
For COC(=O)c1ccc(-n2cnc(Cl)n2)c(F)c1 the results were HPGD block 1.3%.
O=C(c1ccco1)N1N=C(c2cccs2)CC1c1ccc(F)cc1 (stereo not given) was read as HPGD block -22.7%.
CCCC(c1nnnn1C(C)(C)CC)N(Cc1ccco1)Cc1cc2ccc(OC)cc2[nH]c1=O (stereo not given) was read as HPGD block -20.7%.
For COc1ccc(C(=O)Nc2nnc(C(F)(F)F)s2)cc1 the results were HPGD block -3.0%.
Screening CCc1c2c(nc3c(C(C)C)cccc13)-c1cccc(=O)n1C2 returned HPGD block inconclusive.
For Cc1cc(C(=O)NCc2cccs2)cs1 the results were HPGD block 28.2µM*.
For COc1cc(OC)c2c(c1Cl)OC1(C2=O)C(O)=CC(=O)CC1C (stereo not given) the results were HPGD block -10.5%.
Screening Cc1ccc(NC(=O)c2nnn(-c3cc(C)cc(C)c3)c2N)cc1 returned HPGD block -21.4%.
Screening CN(C(=O)Nc1ccccc1)C1CCS(=O)(=O)C1 (stereo not given) returned HPGD block -6.7%.
Screening CN(C)/C=C(/C#N)C(=O)c1cccc(Oc2ccc(C(C)(C)C)cc2)c1 returned HPGD block 22.4µM*.
For Cc1ccc2c(Cl)cc(Cl)c(OCC(=O)NC(=O)NCc3ccco3)c2n1 the results were HPGD block -7.5%.
`CCC(=O)N1CCN(c2ccccc2NC(=O)c2ccc(-c3cccc([N+](=O)[O-])c3)o2)CC1` gave HPGD block -10.0%.
Cc1ccccc1CSc1nnc(-c2cccs2)n1Cc1ccco1 was read as HPGD block -12.2%.
For N#Cc1cnc(SCC(=O)c2ccccc2)nc1N the results were HPGD block -14.0%.
Screening O=C(NCc1ccccc1)c1cccc(COc2ccc(Cl)cc2)c1 returned HPGD block -27.2%.
Screening OCCN(CCO)c1ncnc2c1sc1nc(N3CCOCC3)c3c(c12)CCCC3 returned HPGD block -14.6%.
`O=S(=O)(CCN(CCS(=O)(=O)C(F)(F)F)CC1CCCO1)C(F)(F)F` (stereo not given) gave HPGD block -13.0%.
Fc1cc2ncn(Cc3ccccc3)c2cc1F was read as HPGD block -6.5%.
`Cc1ccc(-c2csc3ncnc(N4CCN(C(=O)c5ccccc5)CC4)c23)cc1` gave HPGD block -15.4%.
`Cn1cc(CCC(=O)NCc2ccc3c(c2)OCO3)c2ccccc21` gave HPGD block -17.1%.
`CCOC(=O)c1cn(CC)c2cc(N3CCSCC3)c(F)cc2c1=O` gave HPGD block inconclusive.
O=C(COC(=O)C1CC1)Nc1ccc(N=Nc2ccccc2)cc1 was read as HPGD block -2.1%.
For N#CCCN1CCN(S(=O)(=O)c2ccc3c(c2)OCCCO3)CC1 the results were HPGD block -7.7%.
Screening C=CC(C)(O)CC1[C@@]2(C)CCCC(C)(C)C2CC[C@]1(C)O (stereo not given in full) returned HPGD block -3.6%.
`Cc1oc(-c2ccccc2Cl)nc1CSCC(=O)O` gave HPGD block -7.2%.
For COc1ccccc1NC(=O)CN1CCN(CC(=O)Nc2ccc(OCc3ccccc3)cc2)CC1 the results were HPGD block -6.8%.
O/N=C(/CN(O)/C=C1/C=CC=N1)c1cccs1 was read as HPGD block -16.3%.
`Cn1c(N)c(C(=O)CSc2ccc3c(c2)OCCO3)c(=O)n(C)c1=O` gave HPGD block -9.8%.
Screening COc1ccc(/C=C/C(=O)NC(=S)Nc2cc3oc4ccccc4c3cc2OC)cc1 returned HPGD block -12.9%.
For CCN(CC)S(=O)(=O)c1ccc(NS(=O)(=O)c2ccc(C)c(C)c2)cc1 the results were HPGD block -14.9%.
Screening Cc1cc(S(=O)(=O)NCCN2CCOCC2)c(C)s1 returned HPGD block -11.2%.
Screening CCOC(=O)C1CCN(C(=O)Cn2cc3c(n2)CCC(C)C3)CC1 (stereo not given) returned HPGD block -9.1%.
Cc1cc(-c2ccc(N3C(=O)CCC3=O)c(C)c2)ccc1N1C(=O)CCC1=O was read as HPGD block inconclusive.
`CCOC(=O)N1CCN(Cc2ccc(F)cc2F)CC1` gave HPGD block 6.0%.
For COC(=O)[C@@H](NC(=O)N1CCc2nc(COc3ccccc3)c3c(c2C1)CO[C@@H](C)C3)C(C)C the results were HPGD block -6.1%.
Screening CCN1C(=O)C(CC(=O)NC)N(NC(=O)c2ccccc2)C1=S (stereo not given) returned HPGD block -7.1%.
COc1ccc(Cn2c(-c3ccccc3)nc3c(c(=O)c4ccccc4n3C)c2=O)cc1 was read as HPGD block -14.1%.
For CC1(C)[C@@H](CC(=O)O)CCC[C@@H]1CC(=O)O the results were HPGD block -1.7%.
CCOC(=O)Cc1csc(Nc2c(C)n(C)n(-c3ccccc3)c2=O)n1 was read as HPGD block -16.9%.
For CCCC(=O)N1CCN(c2ccc(NC(=O)c3ccc(Br)o3)cc2)CC1 the results were HPGD block -7.9%.
`CCn1c(SCC(=O)Nc2cc(C)on2)nc2sc(C)c(C)c2c1=O` gave HPGD block -11.5%.
Cc1[nH]c2ccccc2c1C(=O)CN1CCC(C)CC1 was read as HPGD block -3.2%.
O=C(COc1ccc(Cl)cc1Cl)N1CCCN(C(=O)COc2ccc(Cl)cc2Cl)CC1 was read as HPGD block -0.5%.
`CCOC(=O)N1CCN(c2nc3c(c(=O)[nH]c(=O)n3C)n2Cc2ccccc2Cl)CC1` gave HPGD block -17.8%.
For O=C1c2ccccc2C(=O)N1CCCC(=O)N1CCc2ccccc21 the results were HPGD block 5.7%.
CC12CCC(c3n[nH]c(=S)nc31)C2(C)C (stereo not given) was read as HPGD block inconclusive.
`Cc1sc(NC(=O)c2ccccc2)c(C#N)c1-c1ccccc1` gave HPGD block inconclusive.
O=C(O)CCCn1nc(C(F)(F)F)c2c1CCCCC2 was read as HPGD block -15.8%.
CC(=O)NC(Cc1ccccc1F)C(=O)NC1CCN(C(=O)c2cnccn2)CC1 (stereo not given) was read as HPGD block -6.3%.
For CCOc1cc(/C=N/NC(=O)c2cccs2)ccc1OC(=O)N1CCOCC1 the results were HPGD block -10.3%.
`O=C(Nc1cnn(Cc2c(Cl)cccc2Cl)c1)C(c1ccccc1)c1ccccc1` gave HPGD block -4.3%.
Screening C(=N\N1CCN(Cc2ccccc2)CC1)/c1cccs1 returned HPGD block -7.5%.
For CCc1sc(-c2c(C#N)c(N)nc3c2CCCCCC3)cc1[N+](=O)[O-] the results were HPGD block -14.6%.
`CCN(Cc1ccccc1)S(=O)(=O)c1ccc(C(=O)Nc2nnc(-c3ccccc3OC)o2)cc1` gave HPGD block -20.1%.
`COc1ccc(CCNC(=O)c2ccc(NS(=O)(=O)c3c(C)noc3C)cc2)cc1OC` gave HPGD block -5.2%.
`COCc1cc(C)n(CC(=O)NC(C)c2ccccc2)c(=O)c1C#N` (stereo not given) gave HPGD block inconclusive.

The last 2 compounds of the section before lead into the next.
`COc1ccc(CCNC(=O)c2ccc(NS(=O)(=O)c3c(C)noc3C)cc2)cc1OC` gave HPGD block -5.2%.
`COCc1cc(C)n(CC(=O)NC(C)c2ccccc2)c(=O)c1C#N` (stereo not given) gave HPGD block inconclusive.
O=C(NCC(=O)N(Cc1ccccc1)C(C(=O)NC1CCCC1)c1ccco1)c1ccco1 (stereo not given) was read as HPGD block -1.7%.
`CCOC(=O)C(C(=O)Nc1ccccn1)C1CCCCC1` (stereo not given) gave HPGD block -10.1%.
Screening CCCCN1CCc2[nH]c(=S)[nH]c(=O)c2C1 returned HPGD block inconclusive.
Cc1cc(=O)oc2cc(OCC(=O)Nc3nnc(CC(C)C)s3)ccc12 was read as HPGD block -23.0%.
Screening CCC(CC)C(=O)Nc1cc(C)cc(C)c1 returned HPGD block -13.4%.
CCCn1nc(C(=O)Nc2cccc(C(=O)OC)c2)c2ccccc2c1=O was read as HPGD block -11.7%.
Screening CCOC(=O)c1nnn(-c2nonc2N)c1CN(C)C1CCCCC1 returned HPGD block -6.7%.
CC1=CC(C)C2C(=O)N(c3ccccc3)C(=O)C2C1 (stereo not given) was read as HPGD block -2.5%.
Screening COC(=O)N/N=C/C1=C[N+](=O)c2ccccc2[N+]1=O returned HPGD block -13.3%.
For CCOc1ccc(N2CC(C(=O)Nc3ccc(F)cc3F)CC2=O)cc1 (stereo not given) the results were HPGD block -12.2%.
For Cc1cc(C(=O)CSc2nnc(-c3ccco3)o2)c(C)n1-c1ccc2c(c1)OCCO2 the results were HPGD block -14.7%.
COc1cc(OC)c(OC)cc1/C=N/Nc1ncnc2c1[nH]c1ccccc12 was read as HPGD block inconclusive.
Screening CCCCNc1cc(=O)oc2ccccc12 returned HPGD block -13.2%.
`O=C(NCc1ccco1)C12CN(Cc3ccccc3)CC1C(c1ccc([N+](=O)[O-])cc1)=NO2` (stereo not given) gave HPGD block -12.8%.
Cc1ccc(C(=O)N/C(=C/c2cccs2)C(=O)NCc2ccco2)cc1 was read as HPGD block -0.4%.
For CCOC(=O)c1ccccc1NC(=O)c1ccccc1NS(C)(=O)=O the results were HPGD block -11.3%.
`CCN1C(=O)c2ccccc2S(=O)c2ccc(C(=O)N3CCN(C(=O)c4ccco4)CC3)cc21` (stereo not given) gave HPGD block -5.8%.
`Cc1ccc(N2CC(C)Cn3c2nc2c3c(=O)n(CC(=O)OCc3ccccc3)c(=O)n2C)cc1C` (stereo not given) gave HPGD block inconclusive.
COC(=O)c1ccc(NC(=O)Cc2ccccc2)cc1 was read as HPGD block -22.6%.
Screening COc1ccc(NC(=O)CCN2CCCCCC2)cc1 returned HPGD block -8.8%.
`COc1ccc(Cn2nnnc2C(c2ccccc2Cl)N2CCC(C(N)=O)CC2)cc1` (stereo not given) gave HPGD block -16.0%.
Screening O=S(=O)(NCCCCCCc1ccccc1)c1cccc2c(Cl)cccc12 returned HPGD block -21.0%.
For Cc1cc(C(=O)NCCCOC(C)C)c2ccccc2n1 the results were HPGD block -11.0%.
`CCOc1ccc(C(=O)OC2CCN(C)CC2)cc1` gave HPGD block -1.9%.
O=C(OC(C(=O)NCc1cccs1)c1ccccc1F)c1ccco1 (stereo not given) was read as HPGD block 1.3%.
For CCCn1c(=O)c2ccccc2n2c(SCc3nc4ccccc4s3)nnc12 the results were HPGD block -10.0%.
`COc1cccc(N=Cc2c[nH][nH]c2=O)c1` gave HPGD block -0.4%.
Screening CCCOc1ccc(-c2nnn(CC(=O)Nc3cccc(C(=O)OC)c3)n2)cc1 returned HPGD block -5.4%.
For CCc1cc2c(=O)n(-c3ccc(Br)cc3)cnc2s1 the results were HPGD block -4.5%.

Bioassay records (PubChem BioAssay)
